Rango complex inh = inhibitors of Rango-importin beta complex formation; Q14974; Rango CFP/YFP FRET sensor + importin beta, 45 min; Potency, µM (titrated, usually from 92.2 µM), for inactives: at the highest dose inhibition of complex formation; hit rate 0.031% among 340,000; AID 540263; active = rising FRET ratio curve, often small or poorly fitted; inconclusive = mostly compound fluorescence or quenching in the first reads; inactive = flat curves in all reads;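 note: potency is the fitted concentration of half-maximal effect; 0% = DMSO wells and 100% = buffer wells lacking importin beta; nearly all actives have a fitted effect of over 15% in size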
Target sequence (Q14974 whole entry, looked up): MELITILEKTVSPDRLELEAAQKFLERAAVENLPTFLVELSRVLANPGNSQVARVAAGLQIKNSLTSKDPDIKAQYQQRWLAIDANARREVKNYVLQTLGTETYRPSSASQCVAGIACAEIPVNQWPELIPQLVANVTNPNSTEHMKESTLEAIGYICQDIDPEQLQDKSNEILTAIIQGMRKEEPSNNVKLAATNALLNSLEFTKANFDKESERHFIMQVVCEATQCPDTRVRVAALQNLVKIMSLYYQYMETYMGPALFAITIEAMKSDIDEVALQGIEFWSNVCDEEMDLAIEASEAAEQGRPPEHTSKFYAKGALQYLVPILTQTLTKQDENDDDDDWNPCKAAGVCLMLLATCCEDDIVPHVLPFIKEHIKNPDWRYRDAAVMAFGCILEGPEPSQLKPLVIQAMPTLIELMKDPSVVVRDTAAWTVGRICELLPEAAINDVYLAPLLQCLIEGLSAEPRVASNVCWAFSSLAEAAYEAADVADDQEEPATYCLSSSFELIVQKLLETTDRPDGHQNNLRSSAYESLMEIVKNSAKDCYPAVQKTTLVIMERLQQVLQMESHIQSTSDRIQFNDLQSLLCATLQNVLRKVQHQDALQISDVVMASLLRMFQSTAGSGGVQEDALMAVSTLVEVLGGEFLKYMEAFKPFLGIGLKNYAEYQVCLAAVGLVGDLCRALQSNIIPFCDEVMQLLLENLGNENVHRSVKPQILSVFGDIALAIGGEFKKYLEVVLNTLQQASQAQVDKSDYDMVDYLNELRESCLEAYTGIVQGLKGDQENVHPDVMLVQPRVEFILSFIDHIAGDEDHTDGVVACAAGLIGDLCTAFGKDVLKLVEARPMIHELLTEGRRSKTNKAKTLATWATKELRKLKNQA
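FRET biosensor Rango (snurportin 1 IBB between N-terminal EYFP and C-terminal Cerulean), 50 nM in PBS/1 mM DTT/0.02% Tween-20/0.1% BSA, preincubated 5 min RT with compound; 0.125 microM importin beta added, 45 min RT, CFP/YFP FRET ratio read.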
miR-21 FLuc = raises the signal of a miR-21 reporter; AID 2288; Potency, µM (series often up to 38.3 µM), without a hit: top-dose reporter change, positive = more light; 340,000 tested, under 10 active; HeLa miR-21 FLuc reporter, luciferase, 48 h; active = well fitted rising curve with a large enough effect; inconclusive = small, poorly fitted or top-dose-only effect; inactive = no such curve, though single readings can be large or run the other way;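 note: % of control where 0% means no effect; miR-21 action dims this reporter so a rising signal means less miR-21 action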
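Luminescence from a firefly luciferase reporter carrying a miR-21 binding site downstream, stably expressed under a CMV promoter in HeLa cells that make miR-21 endogenously, reports miRNA modulation after 48 h compound exposure up to approximately 40uM final.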
Rango dissoc inh = inhibition of RanGTP-driven Rango-importin beta dissociation; O95149+P62826; Biochemical FRET Rango-importin beta, RanGTP-induced dissociation; Potency, µM (series often up to 46.1 µM), for inactives: at the top dose activity change, negative = inhibition; hit rate 0.071% among 340,000; AID 540253; active means falling FRET ratio curve, often poorly fitted, with flat reads before Ran was added; inconclusive means other falling curves, or compound fluorescence or quenching; inactive means flat or rising ratio curve;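 note: potency is the fitted concentration of half-maximal effect; % of control where 0% means no effect; nearly all actives have a fitted effect of over 45% in size; -100% = wells without RanGTP and RCC1; the record marks most hits as doubtful in a second field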
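Rango (0.1 uM)–importin beta (0.25 uM) complex; RanGTP-RCC1 trigger; 45 min RT; CFP/YFP FRET read.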
GLA inh pH 4.5 = alpha-galactosidase A (human) inhibition, pH 4.5. P06280. purified enzyme, 4-MU-alpha-Gal fluorescence, pH 4.5. activity change, negative = inhibition, % at 105 µM. 230,000 tested, under 10 active; inconclusive = small, poorly fitted or top-dose-only inhibition, or a rising curve; inactive = flat fitted curve, though single readings scatter; no compound was filed as active;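 note: 0% = full activity with enzyme and -100% = basal without enzyme; dose as in the result columns while the protocol names 77 µM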
* hit, by the source's call; ? = inconclusive; / = not tested or not shown; & = joins results of further samples; [ ] = remark or other dose. Some of the compounds tested. The share of hits here may be higher or lower than overall.

Start of the listing, in advance:
SMILES	Rango dissoc inh	GLA inh pH 4.5	miR-21 FLuc	Rango complex inh
COc1ccc(OC)c(NC(=O)c2ccc(CSc3ncccn3)cc2)c1	-15%	-5	-10%	-1.4%
CCCCN(C(=O)CCn1c(=O)oc2ccccc21)c1ccccc1	7%	/	-5%&-1%	-2.2%
O=C(c1ccc(N2CCCC2=O)cc1)N1CCN(c2cccc(C(F)(F)F)c2)CC1	23%	/	/	-0.1%
CCCCOc1ccc(C(=O)N2CCN(CC(=O)Nc3ccc(C)cc3)CC2)cc1OC	10%	/	18%	-0.3%

The whole of this part, repeating the preview:
SMILES	Rango dissoc inh	GLA inh pH 4.5	miR-21 FLuc	Rango complex inh
COc1ccc(OC)c(NC(=O)c2ccc(CSc3ncccn3)cc2)c1	-15%	-5	-10%	-1.4%
CCCCN(C(=O)CCn1c(=O)oc2ccccc21)c1ccccc1	7%	/	-5%&-1%	-2.2%
O=C(c1ccc(N2CCCC2=O)cc1)N1CCN(c2cccc(C(F)(F)F)c2)CC1	23%	/	/	-0.1%
CCCCOc1ccc(C(=O)N2CCN(CC(=O)Nc3ccc(C)cc3)CC2)cc1OC	10%	/	18%	-0.3%
O=c1cc(N2CCc3ccccc32)[nH]c(=O)n1-c1ccccc1	-35%	7	-11%	-2.9%
O=C(NCCc1ccccc1)C1CCN(S(=O)(=O)c2ccc(Br)s2)CC1	4%	-8	-21%	3.7%
CC(C)(C)NC(=O)C1CCC(CNc2c(N3CCCCC3)c(=O)c2=O)CC1 (configuration not stated)	0%	12	2%	9.5%
c1ccc(-c2csc3ncnc(NCC4COc5ccccc5O4)c23)cc1 (configuration not stated)	2%	4	?	?
CC1=NNC(=O)/C1=C\c1cn(-c2ccccc2)nc1-c1ccc(F)cc1	30%	-4	0%	10.0%
O=C(CSc1nnnn1-c1ccc2c(c1)OCO2)NCc1cccs1	1%	6	-3%	0.4%
Cc1cc(C)cc(NC(=O)c2ccc3nc[nH]c3c2)c1	-7%	-4	-43%	-0.3%
COc1cccc(NC(=O)CSc2nc(=O)n(Cc3ccncc3)c3c2CCCC3)c1	2%	/	/	3.7%
Cc1ccc(OCCNCc2ccccc2)c(C)c1	-1%	/	-10%	7.6%
CC(C)(C)OC(=O)N[C@H]1C=C[C@H](OC(=O)CC(=O)OCC(F)(F)F)C1	-22%	/	/	0.3%
COc1ccc(Oc2cnn(-c3ccccc3)c(=O)c2Br)cc1	-1%	-4	3%	0.3%
CCOC(=O)C1(Cc2cccc(Cl)c2)CCCN(C(=O)CN2C(=O)CSC2=O)C1 (configuration not stated)	15%	/	-23%	4.0%
O=C(Nc1cccc(F)c1)C1CCCN1C(=O)OCc1ccccc1 (configuration not stated)	15%	/	-1%	1.6%
O=C(COC(=O)c1ccc(Cl)nc1)NCCNC(=O)COC(=O)c1ccc(Cl)nc1	-5%	/	/	-1.4%
COc1ccc(-c2c(C)n([O-])c(C)c(C)[n+]2=O)cc1	18%	3	-2%	?
COc1cccc(N2CCN(C(=O)CCc3nnc4ccc(N5CCCC5)nn34)CC2)c1	-3%	/	6%	-1.6%
COc1ccc(NC(=O)COC(=O)c2cnccn2)cc1Cl	43%	-7	2%	2.0%
CC(C)(O)C#Cc1ccc(C(=O)Nc2ccc3c(c2)OCO3)s1	-8%	/	-46%	-0.6%
CCOC(=O)N1CCC(n2c(SCC(=O)NCCc3ccc(S(N)(=O)=O)cc3)nc3ccccc3c2=O)CC1	37%	-11	9%	-2.3%
CC(=O)Nc1ccc(NC(=O)CSc2ccc(C(F)(F)F)cc2[N+](=O)[O-])cc1	0%	0	-9%	0.0%
CCOC(=O)c1c(-c2ccc(C)o2)csc1NC(=S)NC(=O)c1ccccc1Br	-10%	-11	-2%	-2.6%
CCOC(=O)C1=C(N)N(c2ccccc2Oc2ccccc2)C(=O)C1	11%	6	0%	0.5%
O=C(Nc1ccc(F)cc1F)c1csc(-c2ccncc2)n1	-10%	12	-29%	-0.7%
COCCNC(=O)C(=O)NCCN1CCNCC1	-7%	3	-4%	4.8%
N#Cc1ccccc1S(=O)(=O)N1CCN(CC(O)CN2CCOCC2)CC1 (configuration not stated)	20%	/	/	-1.0%
COc1ccc(OC)c(C(=O)c2coc3ccc(OC(C)=O)cc23)c1	16%	-5	-23%	-0.1%
CC(=O)Nc1ccc(S(=O)(=O)N2CCN(Cc3ccccc3[N+](=O)[O-])CC2)cc1	0%	7	16%	5.1%
C=CCSc1nc(N)c2c(C)c(C)sc2n1	14%	0	-46%	-3.6%
Cc1cccc(Nc2nc3c(c(=O)n(C)c(=O)n3C)n2Cc2ccccc2)c1	-3%	5	-2%	4.9%
COc1cc(/C=N/NC(=O)c2cc(-c3ccccc3)sc2N)cc(OC)c1OC	-6%	-5	16%	?
CCc1ccc(NS(=O)(=O)c2ccc3c(c2)CCN3C(=O)CCC(=O)O)cc1	0%	/	1%	-2.1%
COc1cc([N+](=O)[O-])ccc1NC(=O)CC(C)C	1%	-3	1%	3.1%
CCc1cc(C(=O)N2CCc3c([nH]c4ccccc34)C2c2ccc(OC)cc2F)no1 (configuration not stated)	2%	1	-2%	-4.1%
CCOc1[nH]n(-c2ccccc2)c(=O)c1C=Nc1ccc(Cl)cc1	25%	-1	0%	0.4%
CCCOn1nnnc1-c1ccccc1	42%	-6	-2%	1.9%
COCCNC(=O)CCCn1c(=O)c2cc(OC)c(OC)cc2n(CC(=O)Nc2ccccc2OC)c1=O	-6%	0[21.1 µM]	0%	-0.5%
O=C(COC(=O)CCCOc1ccc(Cl)cc1Cl)NCc1ccc(F)cc1	11%	0	24%	-1.7%
CC(CNC(=O)CCn1c(=O)c2cccn2c2ccc(F)cc21)c1ccccc1 (configuration not stated)	1%	/	-14%&17%	-4.1%
COc1ccc(CC(=O)N[C@@H]2c3ccccc3CC[C@@H]2OCc2ccccc2)cc1	8%	/	/	-0.1%
CC(C)OCc1ccc(C(=O)N2CCN(S(=O)(=O)c3ccc(Br)s3)CC2)cc1	2%	/	/	3.7%
COc1ccc(C)cc1NC(=O)C1CCCN(S(=O)(=O)c2cccnc2)C1 (configuration not stated)	-5%	/	-3%	-6.9%
Cc1ccc(NC(=O)c2sc3ccccc3c2Cl)nc1	-9%	3	-48%	0.3%
O=S(=O)(NC1CCCCCCC1)c1ccc(F)cc1	2%	/	/	-2.6%
CCCS(=O)(=O)N1CCCC(C(=O)NC(C)c2ccc3c(c2)OCCO3)C1 (configuration not stated)	-6%	1	-4%	0.0%
CC1C(=O)N2CCCc3cc(S(=O)(=O)N4CCN(c5ccc(F)cc5)CC4)cc1c32 (configuration not stated)	-1%	/	0%	2.1%
CCc1ccccc1NC(=O)C1CCN(C(=O)N2CCOc3ccccc32)CC1	5%	/	14%	-1.0%
O=C(CSc1nnc(-c2ccc3c(c2)OCO3)o1)Nc1ncc(Cl)cc1Cl	-9%	-8	-17%	-2.5%
CC(Oc1ccccc1)C(=O)NNC(=O)c1cccs1 (configuration not stated)	10%	3	0%	1.7%
COc1ccc(NC(=O)CSc2nnc(C3CCCCC3)n2N)c(OC)c1	15%	/	7%	-4.7%
Clc1ccccc1OCCCn1ccnc1	-2%	/	-2%	3.2%
CCOc1ccc(C(C)NC(=O)Nc2ccc(F)cc2F)cc1 (configuration not stated)	-14%	/	-7%	3.0%
O=C1N(Cc2ccc3c(c2)OCO3)c2ccccc2C1(O)c1c[nH]c2ccccc12 (configuration not stated)	-5%	-4	5%	-5.6%

More entries:
SMILES	Rango dissoc inh	GLA inh pH 4.5	miR-21 FLuc	Rango complex inh
O=C(CN(C(=O)c1csnn1)c1ccc(F)c(Cl)c1)NCc1ccc(F)cc1	-3%	/	1%	-1.7%
Cc1cccc(C(=O)NNC(=O)c2ccc(NC(=O)C(C)(C)C)cc2)c1	21%	/	-36%	-1.0%
Cc1cc(C)c(S(=O)(=O)c2ccccc2Cl)c(Cl)n1	/	1	9%	/
O=C(N/N=C/c1ccccc1O)C1(O)c2ccccc2-c2ccccc21	-6%	8	13%	1.1%
Cc1sc2ncnc(OCC(=O)NC(C)C(C)C)c2c1C (configuration not stated)	-22%	4	5%	-4.0%
O=C(NCc1ccc2c(c1)OCO2)c1ccc(CS(=O)(=O)c2ccc(Br)cc2)o1	20%	-6	19%	-1.0%
CN(c1ccccc1)S(=O)(=O)c1ccc(C(=O)OCC(=O)N2CCOCC2)cc1	2%	4	-3%	-2.4%
COc1ccc(NC(C)=O)cc1S(=O)(=O)Nc1ccc(OCc2ccccc2)cc1	-4%	/	-1%	-0.9%
CCN(C[C@H]1N[C@@](CC)(C(=O)OC)[C@H]2C(=O)N(C)C(=O)[C@@H]12)S(=O)(=O)c1ccc(OC(F)(F)F)cc1	4%	/	/	0.6%
CCc1ccc(CN(C)C(=O)c2cc(COc3c(F)cccc3F)on2)cc1	4%	5	-17%	-0.3%
COc1ccc2nc3sc(C(=O)N4CCN(C)CC4)cc3cc2c1	-12%	1	-18%	0.1%
C#CCNC(=O)C1=C[C@H](c2cn(C(C)=O)c3ccccc23)[C@@H](CCCO)[C@H](OCC)O1	-13%	5	3%	-3.0%
O=C(NC(=S)N(CCCCO)C1CCCCC1)c1sc2ccccc2c1Cl	1%	-15	-16%	1.2%
CC1CCN(S(=O)(=O)c2ccc3c(c2)N(CC(=O)NCc2cccnc2)C(=O)CS3)CC1	31%	-5	3%	-0.5%
CC1CC(C)CN(C(=O)Cn2c(=O)c3cccn3c3cccnc32)C1 (configuration not stated)	-22%	/	3%	?
O=C(COC(=O)Cn1cnc2ccccc2c1=O)NCc1ccccc1Cl	40%	-1	1%	-1.9%
NC(=O)c1cc(-c2ccccc2)nc2ccc(Br)cc12	16%	-2	-8%	-4.9%
CCOC(=O)n1n[n+]([O-])c2ccccc21	-5%	8	-1%	0.0%
O=C(CSc1cccc[n+]1[O-])Nc1ccccc1Oc1ccccc1	-6%	-6	6%	-2.1%
Cc1cccc(C)c1NC(=S)N(Cc1ccccc1)Cc1cccs1	10%	-15	2%	-1.6%
Cc1ccc(NS(=O)(=O)c2cc3c(cc2C)NC(=O)CO3)cc1	-3%	/	10%	4.3%
CC(O)c1ccc2c(c1)OCCOCCN(C)CCOCCO2 (configuration not stated)	-9%	-1	-1%	-2.6%
O=C(CSc1nc(-c2ccccc2Cl)ns1)Nc1ccc2c(c1)OCO2	-9%	-6	-12%	-2.1%
CCOc1ccccc1Nc1ncccc1C(=O)O	5%	-4	-20%	0.5%
COc1ccc(CN(CC(=O)NCc2ccc(F)cc2)C(=O)c2ccco2)cc1	-12%	/	1%	0.3%
O=S(=O)(Nc1ccc(Cl)c(Cl)c1)N1CCOCC1	-4%	/	-10%	0.5%
NC(=O)c1ccsc1NC(=O)COC(=O)CSc1ccc(Cl)cc1	0%	3	1%	-1.5%
Cc1ccc(SCc2nn(C)c(Cl)c2C=O)cc1	-25%	-1	-38%	0.5%
O=C(N/N=C/c1ccccc1C(=O)O)C(=O)N1CCCCC1	-4%	-1	-2%	4.4%
O=C(CN1CCN(S(=O)(=O)c2ccc(Br)cc2)CC1)N/N=C/c1ccc(Br)s1	-8%	1	6%	-2.9%
CCn1c(=N)n(CCO)c2ccccc21	-6%	1	0%	6.7%
COc1ccccc1NC(=O)c1ccc(NC(=O)c2nc3nccc(C)n3n2)cc1	3%	/	/	-0.8%
